MgrA DNA FP: S. aureus MgrA activity modulators, primary screen, biochemical, S. aureus Newman, fluorescence polarization; AID 602314, 2012; MgrA-DNA binding; hit rate 0.13% among 84,000; inhibition, %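 (about 10 µg/mL by stock and volumes)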;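 active = above 50% in either of two replicates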;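 also: 0% = protein plus DNA without compound and 100% = DNA alone without protein; higher means less MgrA bound to DNA so lower polarization; one replicate is shown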
S aureus helic: inhibitors of S. aureus replicative helicase, primary screen, biochemical, fluorescence unwinding readout. inhibition, %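 (tested at about 80 µM)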. hit rate 0.05% among 120,000. purified S. aureus helicase, fluorescence unwinding assay; about half of the hits fall short of the stated cut;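 active = both duplicates at 50% or more, or one of them with a favoured structure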;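 also: 0% = mean of negative control wells and 100% = mean of positive control wells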
* = called active by the depositor; x = no result given; & = joins results of further samples. Only part of the results is shown (hit frequency here may not be typical).

Each structure is followed by: MgrA DNA FP, S aureus helic
> COc1ccc(S(=O)(=O)NCC(=O)N(C)Cc2cccc(F)c2)cc1
 : x, -8
> O=C(OCCn1ncc2ccccc2c1=O)c1ccc(F)cc1Cl
 : -1.1, x
> c1ccc(Sc2nc(-c3ccccc3)ns2)cc1
 : -3.0, x
> CCCN1Cc2cccc(C(=O)NC(C)c3ccc4c(c3)OCCO4)c2C1=O (stereo unspecified)
 : x, 32
> Cc1ccccc1/C=N/NC(=O)c1ccc(-n2cnnn2)cc1
 : x, 7
> CCC(Sc1nc2sc(C(=O)OC)c(C)c2c(=O)n1N)C(=O)NC1CCCC1 (stereo unspecified)
 : x, 8
> O=C1S/C(=C/c2ccco2)C(=S)N1c1ccccc1
 : x, 6
> Oc1ccc(Br)cc1C=NCC12CCC3CC(CC(C3)C1)C2
 : 3.3, 4
> O=C(CSc1nnc(-c2ccncc2)o1)Oc1ccccc1
 : 2.1, 3
> N#CCn1c(-c2ccc(Cl)cc2)noc1=O
 : -3.0, 8
> CC(N=Cc1cc(Cl)ccc1O)c1ccc2c(c1)OCCO2 (stereo unspecified)
 : -1.9, x
> O=C(NCCCN1CCC(Cc2ccccc2)CC1)c1nnc(-c2cccc(Cl)c2)o1
 : x, -19
> Cc1ccc(NC(=O)N(C)C)cc1
 : x, 26
> CS(=O)(=O)/C(C#N)=C/c1ccsc1Sc1ccc(Cl)cc1
 : -1.1, x
> Cc1ccc(NC(=O)CSc2nc3c(sc4ccccc43)c(=O)n2CC2CCCO2)cc1C (stereo unspecified)
 : 2.4, 8
> CCOC(=O)c1oc2ccc3c(c2c1C)C(=O)CC1(CCC(C)CC1)O3 (stereo unspecified)
 : x, -27
> CC1CCCC(NC(=O)/C=C2\Sc3ccccc3NC2=O)C1C (stereo unspecified)
 : -1.2, 2
> CCC(C(=O)NC1CCC(C)CC1)n1c2ccccc2c2cn[nH]c(=O)c21 (stereo unspecified)
 : 4.2, 15
> O=c1[nH]c(O)c(N=Nc2c(F)cccc2F)c(=O)[nH]1
 : 0.9, x
> CCOC(=O)c1ccc(N2CC(O)=C(c3nc4ccccc4s3)C2=N)cc1
 : x, -5
> CCOc1ccccc1N(C)C(=O)Cc1c(C(=O)O)c(C)cn1C
 : x, -11
> CC(C)OCCCNc1ncnc2ccccc12
 : x, -10
> CN(C)/C=C1/C(=O)NN=C1CSc1ccc(Cl)cc1
 : -1.3, x
> NC(=O)COC(=O)c1cncc(Br)c1
 : 2.1, -10
> O=C(c1cc2c(s1)CCCC2)N1CCCC1c1nc2ccccc2s1 (stereo unspecified)
 : x, 11
> OC1(C(F)(F)F)NN=C2C=Cc3ccccc3N21 (stereo unspecified)
 : 0.0, 6
> Cc1ccc(S(=O)(=O)CCSc2ccc(Cl)cc2)cc1
 : -0.6, x
> Cc1cc(C)n(C2=NS(=O)(=O)c3ccccc32)n1
 : x, 2
> COCCn1c(=NC(=O)CSCC(=O)NC2CCCCC2)sc2cc(OC)ccc21
 : x, -2
> CCOC(=O)c1c(C)n(C(=O)c2ccco2)c(=O)n1C(=O)c1ccco1
 : 22, 1

Quoted at random: two records from the list.
Each structure is followed by: MgrA DNA FP, S aureus helic
> Cc1cc(C)n(C2=NS(=O)(=O)c3ccccc32)n1
 : x, 2
> CCC(Sc1nc2sc(C(=O)OC)c(C)c2c(=O)n1N)C(=O)NC1CCCC1 (stereo unspecified)
 : x, 8

The listing continues.
Each structure is followed by: MgrA DNA FP, S aureus helic
> CN1/C(=C\P(=O)(C2CCCCC2)N2CCOCC2)C(C)(C)c2ccccc21 (stereo unspecified)
 : x, -48
> O=C(NCc1ccc2c(c1)CCO2)c1ccccc1
 : -2.6, x
> CNc1ccccc1C(C)(C)c1cc(-c2ccco2)n[nH]1
 : -1.5, -4
> C=CCN1C(=NC(=O)C(CC)CC)SC2CS(=O)(=O)CC21 (stereo unspecified)
 : x, -8
> CC(C)(C)c1cc(Oc2ccc(C(F)(F)F)cc2[N+](=O)[O-])ccc1Oc1ccc(C(F)(F)F)cc1[N+](=O)[O-]
 : -0.3, x
> Cn1c(N)c(S(=O)(=O)NC2CCCCC2)c(=O)n(C)c1=O
 : x, -16
> Cc1ccn2c(=O)c(NC(=O)COc3ccccc3)c(C)nc2c1
 : x, 5
> COc1ccc(OCCOc2ccc(OC)cc2)cc1
 : -0.8, x
> CCOc1ccc(NCC(=O)n2nc(C)cc2C)cc1
 : -5.4, 11
> COc1cc(NS(=O)(=O)c2ccc(NC(=O)c3sc4ccccc4c3Cl)cc2)nc(OC)n1
 : 3.8, x
> COc1ccccc1CNC(=O)c1cc(C)c2c(C)nn(-c3ccccc3Cl)c2n1
 : 8.1, -6
> CC(=O)c1ccc2c(c1)CCO2
 : -1.1, x
> O=C(CCNc1n[nH]c(=O)[nH]c1=O)N1CCCCC1
 : -1.7, -2
> Nc1nc(N)nc(CN2CCCC2c2nc3ccccc3s2)n1 (stereo unspecified)
 : x, 27
> C=C(c1ccccc1)c1ccc(N(C)C)cc1
 : x, 25
> COc1cc(C)c(NS(C)(=O)=O)cc1C(C)C
 : -0.2, 7
> CC1CCCCN1S(=O)(=O)c1ccc(C(=O)O)cc1 (stereo unspecified)
 : -3.3, 8
> CCC1(CC)Cc2ccccc2-c2nc(NN)n(Cc3ccccc3)c(=O)c21
 : -0.6, 5
> N#CCSc1ncccc1C(F)(F)F
 : 0.4, x
> COc1ccc(-n2nc3c(c2NC(C)=O)CSC3)cc1
 : x, 10
> CC(=O)Oc1ccccc1-c1nc(C)no1
 : x, 10
> O=S(=O)(Oc1ccc(Oc2ccccc2)cc1)c1ccc(F)cc1
 : -1.6, x
> O=S(=O)(c1ccccc1)N1CCN(S(=O)(=O)c2ccc(Cl)cc2)CC1
 : 0.6, 9
> CC(Sc1cn(CCNC(=O)c2cccs2)c2ccccc12)c1ccccc1 (stereo unspecified)
 : 2.0, 3
> CSc1c(C#N)c(-c2cccs2)nn1CNC(=O)Nc1ccccc1C(F)(F)F
 : 0.1, x
> CCSc1nnc2n(/N=C/c3cccs3)cnn12
 : 2.6, 1
> CCC(CC)=NNC(=O)c1ccc(Cl)cc1
 : x, 7
> Nc1ccccc1C(=O)NCCc1ccccc1
 : x, -3
> Cc1cc(C)c(-c2nnc(NC(=O)CSC3=NCCS3)s2)c(C)c1
 : x, 1
> Cc1onc(-c2ccccc2)c1N1C(=O)CCN(C(C)C)C1=O
 : x, 6

Profiles from above:
Listed for C=C(c1ccccc1)c1ccc(N(C)C)cc1 : MgrA DNA FP = x; S aureus helic = 25
Listed for CC(=O)c1ccc2c(c1)CCO2 : MgrA DNA FP = -1.1; S aureus helic = x

Continuation:
Each structure is followed by: MgrA DNA FP, S aureus helic
> COc1ccc(-n2cc(C(=O)N(C)Cc3ccco3)c3ccccc3c2=O)cc1
 : x, -11
> CC(CNC(=O)c1nnc(-c2ccc3c(c2)OCO3)o1)c1ccccc1 (stereo unspecified)
 : x, 3
> CCc1nnc(NC(=O)c2ccc(S(=O)(=O)N3CC(C)CC(C)C3)cc2)o1 (stereo unspecified)
 : x, 6
> CCn1cc(S(=O)(=O)N2CCOCC2)cn1
 : 2.9, -15
> CCOC(=O)c1c(C)csc1NC=C(C#N)C#N
 : x, -13
> O=c1cc(CSc2nnc(-c3cccc(S(=O)(=O)N4CCOCC4)c3)n2C2CCCCCC2)nc2sccn12
 : x, -2
> CCOc1ccc2nc(SCc3c[nH]c4cc([N+](=O)[O-])ccc34)sc2c1
 : -0.7, x
> COc1ccc(/C=C/C(=O)N2CC(C)OC(C)C2)cc1OC (stereo unspecified)
 : -5.8, 8
> Nc1n[nH]c(-c2ccc(Cl)cc2)n1
 : x, 5
> CCCC(=O)c1cc2cc(Br)cc(Br)c2oc1=O
 : 1.7, x
> CC(C)N1C(=O)C2(N=C(N)Nc3nc4ccccc4n32)c2ccccc21 (stereo unspecified)
 : x, 10
> CN(C)/C=C(\C#N)c1nc2ccccc2s1
 : x, -139
> COc1ccc(NC(=S)N(C)Cc2c(C)nn(C)c2C)c(OC)c1
 : -0.1, 1
> OCCN(Cc1ccccc1)Cc1ccccc1C(F)(F)F
 : -3.2, -13
> O=C1CCCc2cc(S(=O)(=O)N3CCCC(C(=O)NCCc4ccccc4)C3)ccc2N1 (stereo unspecified)
 : x, -20
> CC(NC(=O)Cc1cccs1)C(c1cccs1)N1CCN(C)CC1 (stereo unspecified)
 : x, 2
> CCCc1nc(-c2ccccn2)[nH]c(=O)c1CC1CC1
 : -0.7, x
> CCS(=O)(=O)c1nc2ccccc2n1CC(N)=O
 : x, -5
> CCN(CC)c1ccc(C2NC(=O)NC(C)=C2C(=O)OCc2ccc(OC)cc2)cc1 (stereo unspecified)
 : -0.2, x
> COc1ccc(-n2nc3cc(C)c(NC(=O)c4ccc(-c5cccc(Cl)c5C)o4)cc3n2)cc1
 : x, 22
> Cc1ccc(N(C)C(=O)c2cc(S(=O)(=O)N3CCCCC3)c[nH]2)cc1
 : x, -25
> NNS(=O)(=O)c1ccc(-c2ccccn2)s1
 : -1.1, x
> CCc1ccc(CN2CCC(C(=O)N(C)CCc3ccc(OC)c(OC)c3)CC2)cc1
 : -2.1, 0
> CCOC(=O)c1c(Nc2ccccc2OC)sc(C(=O)c2ccccc2)c1N
 : 5.0, x
> O=C(Nc1cccnc1)c1cc(-c2ccccc2)oc1C(F)(F)F
 : -4.5, x
> C=CCn1c(SCC(=O)N2CCCCC2)nc2sc3c(c2c1=O)CCC3
 : -0.5, x
> Cc1cc2nc3c(c(=O)n2[nH]1)CSC3
 : -2.3, x
> CC(C)C(=O)Nc1nn2c(-c3ccco3)nnc2s1
 : 0.1, -2
> CCOC(=O)C(N)CSC1CCCCO1 (stereo unspecified)
 : x, 2&8
> CCOC(=O)Cc1csc(SCC(=O)NC(C)(C)C)n1
 : x, 4

4 structures from above, ordered by SMILES length, low to high.
Each structure is followed by: MgrA DNA FP, S aureus helic
> CC1CCCCN1S(=O)(=O)c1ccc(C(=O)O)cc1 (stereo unspecified)
 : -3.3, 8
> O=C(CCNc1n[nH]c(=O)[nH]c1=O)N1CCCCC1
 : -1.7, -2
> CCC(Sc1nc2sc(C(=O)OC)c(C)c2c(=O)n1N)C(=O)NC1CCCC1 (stereo unspecified)
 : x, 8
> Cc1ccc(NC(=O)CSc2nc3c(sc4ccccc43)c(=O)n2CC2CCCO2)cc1C (stereo unspecified)
 : 2.4, 8

Continuation:
Each structure is followed by: MgrA DNA FP, S aureus helic
> CCN(C(=O)c1cccs1)c1nnc(-c2cccc(C)c2)s1
 : -37, 3
> Cc1onc(-c2ccccc2Cl)c1C(=O)N1CCc2ccccc2C1
 : 0.2, x
> CCOC(=O)c1c(S(=O)(=O)N(C)Cc2ccccc2)c(C)n(C)c1C
 : x, 4
> Cc1noc(C)c1C(=O)N1CC(C(N)=O)Oc2ccccc21 (stereo unspecified)
 : x, 6
> COCCCNc1nc(Nc2ccc(OC)c(Cl)c2)c2cnn(C)c2n1
 : x, 17
> Cc1cc(C)nc(/N=C(/N=C(\N)NC(=O)c2ccccc2)Nc2ccccc2)n1
 : x, -23
> Nc1cccc(NC(=O)c2ccccc2O)c1
 : -7.5, x
> CC1=C(C#N)c2nc(N)c(C#N)c(C)c2/C1=C\c1cccnc1
 : 10, 16
> N#C/C(=C\c1cccn1-c1ccc(Cl)cc1)C(=O)O
 : x, -13
> CN1CCN(C(c2ccccc2)c2ccc(Cl)cc2)CC1 (stereo unspecified)
 : -1.1, x
> CCOC(=O)c1ccc(NC(=O)CSc2ccc(Cl)cc2)cc1
 : x, 16
> COC(=O)C(O)(c1cc(C)n(CC(C)C)c1C)C(F)(F)F (stereo unspecified)
 : x, -10
> CCN(CC)S(=O)(=O)c1ccc(=O)[nH]c1
 : x, -4
> CC(C)(C)c1ccc(O)c(/C(=N/O)c2ccccc2)c1
 : 0.6, x
> CCN(CC)N=Nc1ccc(S(=O)(=O)N=C(C)O)cc1
 : 0.7, 5
> CCOC(=O)C(Nc1ccc2c(c1)OCCO2)c1ccccc1 (stereo unspecified)
 : x, 13
> CC1=C(CCN2CCN(Cc3ccccc3)CC2)C(C)(C)CCC1
 : -0.9, 4
> CCC(=O)Nc1c(OC(=O)CC)ccc2c(C)cc(=O)oc12
 : x, 4
> CC(N)(C(=O)O)c1cccc(OCc2ccccc2F)c1 (stereo unspecified)
 : x, 9
> CCCNC(=O)Nc1ccc(OC(F)(F)F)cc1
 : 0.2, x
> C/C(=N\NC(=O)Cc1c(C)[nH][nH]c1=O)c1ccc2ccccc2c1
 : x, 30
> COc1cccc(CNC(=O)c2cnn3c4c(cnc23)CCCCC4)c1
 : -0.8, 1
> Cn1c(=O)c2c(nc(NCc3ccccc3)n2C)n(C)c1=O
 : x, 7
> CN1/C(=C\C=Nc2ccc(C(=O)O)cc2)C(C)(C)c2ccccc21
 : x, -169
> COc1cccc(-c2cc(C(=O)NCC3CCCO3)on2)c1 (stereo unspecified)
 : -0.9, 9
> COC(=O)c1ccc(C(NC(=O)c2cccnc2)NC(=O)c2cccnc2)cc1
 : x, 15
> CCOC(=O)N1CCC(n2c(SCC(=O)N3CCC(C)CC3)nc3ccccc3c2=O)CC1
 : x, 0
> CCCn1c(SCc2nc(N)nc(N)n2)nc2sc3c(c2c1=O)CCC3
 : x, -4
> CCCCn1c2c(c(=O)n(C)c1=O)C(c1ccc(OC)cc1)C(NC(=O)c1ccccc1)C(=O)N2 (stereo unspecified)
 : x, 10
> CCn1c(CSCC(=O)NC(C)C)nc2cc(S(=O)(=O)N3CCCCC3)ccc21
 : x, 3
> COCC(C)n1c(C)cc(C(=O)COC(=O)c2cccn2C)c1C (stereo unspecified)
 : x, 7
> CCN1C(=O)CC(NC2CCN(c3ccc(C(F)(F)F)cn3)CC2)C1=O (stereo unspecified)
 : -5.1, 6
> Cc1ccc(-c2nc(=O)[nH]c3ccccc23)cc1
 : 0.8, 3
> CCOc1ccc(-n2c(N)c(S(=O)(=O)c3ccccc3)c3nc(C#N)c(C#N)nc32)cc1
 : x, -16
> COc1ccc2[nH]c(C(=O)Nc3ncc(C)cc3Br)cc2c1
 : -2.3, x
> CC1(C)CC(=O)C(CC2=C(O)CC(C)(C)CC2=O)C(=O)C1
 : 3.5, 7
> Cc1cccc(C(=O)NNC(=O)CCc2nc(-c3ccc(Cl)cc3)no2)c1
 : -2.9, x

High-throughput results (PubChem)
